Arbovirus anti: arbovirus infection inhibition; arbovirus infection cell-based antiviral screen; inhibition, % at 10 µM; 200,000 compounds, 0.37% hits; AID 1251;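 active = inhibition from about 30%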;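 note: bluetongue infection of BSR cells; cell survival read as ATP light after 72 h; 0% = infected wells without compound and 100% = uninfected wells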
YopH PTP inh: inhibitors of Yersinia enterocolitica YopH tyrosine phosphatase. 140,000 compounds, 0.16% hits. fluorescence Ex485/Em525. inhibition, %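 (about 10 µM by stock and volumes)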;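 active = inhibition of 50% or more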;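 note: controls were vehicle for no effect and minimum signal wells for full effect; inactives centre near -20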
Mtb bLac sens: beta-lactam sensitization of Mtb H37Rv; 330,000 compounds, 0.27% hits; inhibition, % at 25 µM; M. tuberculosis H37Rv growth with meropenem, percent inhibition; hits of this screen are not shown here; AID 434955;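 active = about 74% or more and at least 40 points above the plate without the antibiotic, then above 30% in a dose series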;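 note: growth measured after seven days incubation then overnight dye step; 0% = bacteria only wells and 100% = bacteria with antibiotic; twin plates without the antibiotic show which effects depend on it; some results filed as inactive read as strong as hits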
Mtb H37Rv: M. tuberculosis H37Rv growth inhibitors, H37Rv strain (AID 1626); M. tuberculosis H37Rv growth inhibition; higher % means a stronger effect; one-dose inhibition, % at 10 µM; IC50 in µM for titrated hits; 220,000 compounds, 0.95% hits;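 active = confirmed in a dose series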;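 note: bacteria incubated seven days before Alamar blue readout; 0% = bacteria only wells and 100% = bacteria with antibiotic wells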
RecA splice inh: blocks M. tuberculosis RecA intein splicing. P9WHJ3. cell-free RecA intein splicing, fluorescence. inhibition, %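 (about 9 µM by stock and volumes)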. 290,000 compounds, 0.75% hits; in the data active = inhibition above about 30%;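 note: 0% = vehicle wells and 100% = reference inhibitor control wells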
Target sequence (P9WHJ3 whole entry, looked up, canonical isoform): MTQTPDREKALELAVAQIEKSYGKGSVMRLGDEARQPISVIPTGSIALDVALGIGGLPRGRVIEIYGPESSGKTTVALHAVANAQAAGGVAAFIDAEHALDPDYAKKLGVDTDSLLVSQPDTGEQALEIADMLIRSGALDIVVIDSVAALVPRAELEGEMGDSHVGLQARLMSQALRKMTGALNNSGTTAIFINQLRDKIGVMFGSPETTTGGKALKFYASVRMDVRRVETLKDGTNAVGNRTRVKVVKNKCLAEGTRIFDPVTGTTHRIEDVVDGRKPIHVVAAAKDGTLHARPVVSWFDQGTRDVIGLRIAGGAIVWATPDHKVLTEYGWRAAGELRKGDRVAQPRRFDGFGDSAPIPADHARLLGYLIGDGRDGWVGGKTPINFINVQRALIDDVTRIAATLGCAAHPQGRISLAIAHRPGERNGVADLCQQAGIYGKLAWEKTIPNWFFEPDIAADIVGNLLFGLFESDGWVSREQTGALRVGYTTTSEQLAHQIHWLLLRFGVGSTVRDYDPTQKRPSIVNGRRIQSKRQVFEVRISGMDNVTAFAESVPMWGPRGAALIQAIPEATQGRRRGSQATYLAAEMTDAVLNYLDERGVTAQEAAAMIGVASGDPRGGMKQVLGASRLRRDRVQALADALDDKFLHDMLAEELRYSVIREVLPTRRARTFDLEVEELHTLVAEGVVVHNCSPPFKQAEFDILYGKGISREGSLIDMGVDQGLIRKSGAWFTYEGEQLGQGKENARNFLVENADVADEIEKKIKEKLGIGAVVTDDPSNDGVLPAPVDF
Arbovirus anti repeat: recorded beside Arbovirus anti, whose call it bears; inhibition, %; measured here: 10K subset replicate screen; many hits read low in the repeat;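 first of two repeat runs on a subset; 0% = infected and 100% = uninfected wells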
Active calls of the source: *; nt = no result given; & = joins results of further samples. Only part of the results is shown; the hit share may differ from the screen's.

SMILES | Arbovirus anti | YopH PTP inh | Mtb bLac sens | Mtb H37Rv | RecA splice inh | others
CCOc1ccccc1NC(=O)c1nc(S(=O)(=O)Cc2ccccc2)ncc1Cl | nt | nt | 2 | nt | 4.2
Cc1nn(Cc2c(Cl)cccc2Cl)c(C)c1NC(=O)c1cc(C(C)C)on1 | 6 | -44 | 1 | 10% | -6.8 | Arbovirus anti repeat=-18
Cc1ccsc1/C=N\NC(=O)c1ccc2c(c1)OCO2 | -9 | 31 | -3 | nt | -1.6
COC(=O)c1cccc(NC(=O)c2cccc(OC)c2)c1 | 1 | -21 | -2 | 12% | nt
COCCNc1nnc(SCC(=O)NC(=O)c2ccccc2)s1 | nt | nt | 2 | nt | -0.1
CCOC(=O)c1cc2[nH]c3ccccc3c2[n+](-c2ccc([N+](=O)[O-])cc2)c1C | -9 | -16 | 3 | 7% | -2.1
Nc1ccc(C(=O)OCC(=O)NC2CC2)cc1[N+](=O)[O-] | 5 | nt | -1 | -19% | -0.3
CC(C)c1ccccc1NC(=S)NCCCn1ccnc1 | 6 | nt | 0 | -6% | -4.7
C/C(=N\NC(=O)c1cc(C2CC2)nc2ccccc12)c1ccc(C)s1 | -4 | -22 | -2 | -4% | -0.6
O=C(COC(=O)Cn1cnc2ccccc2c1=O)NCC12CC3CC(CC(C3)C1)C2 | 7 | -28 | -10 | 1% | 0.6
CCOC(=O)c1sc2nc(C)n(N)c(=O)c2c1C | 14 | nt | 1 | 3% | 0.1
CC(=O)N(C)c1nnc(-c2cnccn2)s1 | 7 | -161 | -7 | nt | -1.5
Cc1cccc(-c2nnc(SCCC(=O)N3CCOCC3)o2)c1 | 1 | -21 | 74 | 27% | -1.8
CSc1nc2ccccc2n1CC(=O)N1CCCCC1 | 11 | -39 | -6 | 1% | -5.9
Cc1cccc(NC(=O)CSc2nnc([C@@H]3CCCN3C(=O)OC(C)(C)C)o2)c1C | 20 | 6 | 1 | 15% | 15
CCOC(=O)c1c(NC(=O)Cn2ccsc2=N)sc(C)c1C | -3 | nt | -2 | 5% | -1.3
CCOC(=O)N1CCN(C(=O)c2ccc(CN(c3ccc(C)c(C)c3)S(C)(=O)=O)cc2)CC1 | 5 | -36 | -5 | -6% | 5.2 | Arbovirus anti repeat=5
COc1ccc(CN2CCCC(C(=O)N3CCCCC3)C2)c(OC)c1 (stereo unspecified) | nt | nt | -9 | nt | 1.2
C=Cn1c(C(=O)O)cc(CC)c1-c1ccccc1 | 2 | 4 | -9 | -16% | -0.2
COc1ccc(CC(=O)Nc2ccc(S(=O)(=O)Nc3ncccn3)cc2)cc1 | 5 | -22 | 17 | -8% | 2.5
O=C(c1ccc([N+](=O)[O-])s1)N1CCCc2ccccc21 | nt | nt | 95 | nt | 3.4
O=C1CCN(C(=O)c2cccs2)c2ccccc21 | -1 | -38 | 3 | -1% | -1.0
Cc1sc2nc(SCC(=O)OC(C)C)n(C)c(=O)c2c1C | 7 | -14 | nt | -3% | 0.6 | Arbovirus anti repeat=4
COC(=O)c1ccc(NC(=O)CSc2ccc(-c3ccccn3)nn2)cc1 | nt | nt | 98 | nt | 1.9
O=C1C=C(c2ccc3c(c2)OCO3)CCC1 | nt | nt | 2 | -3% | -3.5
O=C(OCCN1C(=O)c2ccccc2C1=O)c1cnccn1 | 0 | -26 | -5 | -3% | 1.9
Cc1ccccc1NC(=O)CCS(=O)(=O)c1cccc2nonc12 | nt | nt | 50 | nt | -1.2
CCn1nnnc1SCC(=O)Nc1ccc2c(c1)OCCO2 | -1 | -12 | -1 | -3% | 3.2
Cc1cc(C)cc(NC(=S)N2CCN(c3ncccn3)CC2)c1 | 16 | -13 | 2 | 10% | 0.2
O=C(CN1CCCc2ccccc21)Nc1ccc(F)cc1[N+](=O)[O-] | 8 | nt | 1 | 9% | nt

Sorted by number of heavy atoms (ascending): some entries from above
SMILES | Arbovirus anti | YopH PTP inh | Mtb bLac sens | Mtb H37Rv | RecA splice inh | others
Cc1sc2nc(SCC(=O)OC(C)C)n(C)c(=O)c2c1C | 7 | -14 | nt | -3% | 0.6 | Arbovirus anti repeat=4
O=C(OCCN1C(=O)c2ccccc2C1=O)c1cnccn1 | 0 | -26 | -5 | -3% | 1.9
Cc1cc(C)cc(NC(=S)N2CCN(c3ncccn3)CC2)c1 | 16 | -13 | 2 | 10% | 0.2

(cont.)
SMILES | Arbovirus anti | YopH PTP inh | Mtb bLac sens | Mtb H37Rv | RecA splice inh | others
O=C(Nc1nc2ccccc2[nH]1)C1CCN(C(=O)c2ccc(F)cc2)CC1 | nt | nt | -4 | nt | 3.4
CCn1nc(C)c(CN2CCC(C(=O)Nc3cccc(-c4cccc(F)c4)c3)CC2)c1C | nt | nt | 3 | nt | 2.7
CC(C)(O)C#Cc1ccc(CN2CCN(C3CCCCC3)C(CCO)C2)cc1 (stereo unspecified) | 2 | nt | 2 | 6% | nt
COc1ccccc1CCNS(=O)(=O)c1c(C)n(C)c(=O)n(C)c1=O | 4 | -25 | 5 | 3% | -0.8
CC1=NN(C(C#N)c2ccccc2)C(C)(C)C1 (stereo unspecified) | -3 | nt | 1 | -5% | -6.5
Nc1n[nH]c(CO)n1 | nt | nt | 7 | -9% | 0.0
Cn1c(Cc2ccccc2)nnc1SCC(=O)Nc1cccc(S(=O)(=O)NC2=NCCCCC2)c1 | 9 | nt | 18 | 9% | -2.3
CCN(CC(=O)NCc1cccs1)C(=O)c1cc(S(=O)(=O)N2CCCCC2)ccc1Cl | nt | nt | -9 | nt | 7.5
Cc1ccc(NS(=O)(=O)c2cccc(C(=O)N3CCCC(C)C3)c2)cc1 (stereo unspecified) | nt | nt | -9 | nt | 1.9
COc1cc2c(cc1OC)CN(C(=S)NC(=O)c1ccccc1)CC2 | -4 | nt | 5 | 2% | -0.1
CCCCN(CCCC)C1=Nc2ccccc2N/C1=C(/C#N)C(=O)OCC | -13 | 4 | -4 | 9% | -13
Cc1nc(C(=O)N2CCc3c([nH]c4ccccc34)C2c2cc(F)ccc2F)cs1 (stereo unspecified) | -13 | nt | 8 | 4% | 7.2
O=C(c1cc2sccc2n1Cc1ccccc1)N1CCN(c2nc3ccccc3s2)CC1 | 7 | -114 | -3 | 8% | 16
COc1ccc(CNC(=O)CCc2c(C)nc3cc(-c4ccccc4OC)nn3c2C)cc1 | nt | nt | 12 | 0% | 3.4
O=C(NCCc1ccc(Cl)cc1)C1CCN(S(=O)(=O)N2CCC3(CC2)OCCO3)CC1 | 2 | -8 | 2 | -10% | 1.0
CCOC(=O)c1oc2cc(OCC(N)=O)ccc2c(=O)c1-c1ccc(OC)c(OC)c1 | 2 | -37 | -10 | -2% | -0.4&0.7
C=CCNC(=S)NNC(=O)c1ccccc1 | 6 | -13 | 4 | -10% | -0.8
Cc1ccc(N=Cc2c(O)cc(C)oc2=O)c(C)c1 | 0 | nt | 2 | -2% | -3.0
O=C(Nc1ccc(O)c(C(=O)O)c1)Oc1ccccc1 | nt | nt | 16 | -2% | -3.2
CC(C)NC(=O)CN1CCN(Cc2nc(C(c3ccccc3)c3ccccc3)no2)CC1 | -3 | nt | -1 | -6% | -1.1
COc1cc(Cl)ccc1NC(=S)N(CCCN1CCOCC1)Cc1cn(C)c2ccccc12 | -8 | -15 | 1 | 3% | 4.0
Cc1ccc(-c2nnc(Nc3ccc(OCC(N)=O)cc3)c3ccccc23)cc1S(N)(=O)=O | nt | nt | -2 | nt | -6.7
CC(=O)N1CCc2cc(S(=O)(=O)NCCC(=O)NCCc3ccc(Cl)cc3)ccc21 | nt | nt | 6 | nt | -0.6
O=C(CSc1nc(=O)n2ccccc2n1)N1CCCc2ccccc21 | nt | nt | -2 | nt | -0.3
Cc1ccc(CC(=O)NNC(=O)c2ccncc2)cc1C | nt | nt | 4 | nt | -0.5
CSc1ccccc1C(=O)Nc1cccc(C)c1 | -6 | -1 | 4 | -8% | 4.1
CC(C)CN1CCC(CNC(=O)CCc2nnc(Cc3c[nH]c4ccccc34)o2)CC1 | 0 | nt | 2 | -4% | 3.9
Cc1ccc(-c2csc3ncnc(SCC(=O)c4ccc5c(c4)OCCO5)c23)cc1 | 10 | -37 | -7 | -7% | -9.5
COc1cc(Cl)c(S(=O)(=O)NCCN2CCOCC2)cc1Cl | 17 | -28 | 9 | -4% | -1.5
CC(=O)Nc1nonc1NC(=O)CSc1nc2ccccc2o1 | 6 | -54 | -8 | -4% | -5.0

Overlap with the part before: 4 entries, then new ones.
SMILES | Arbovirus anti | YopH PTP inh | Mtb bLac sens | Mtb H37Rv | RecA splice inh | others
CC(C)CN1CCC(CNC(=O)CCc2nnc(Cc3c[nH]c4ccccc34)o2)CC1 | 0 | nt | 2 | -4% | 3.9
Cc1ccc(-c2csc3ncnc(SCC(=O)c4ccc5c(c4)OCCO5)c23)cc1 | 10 | -37 | -7 | -7% | -9.5
COc1cc(Cl)c(S(=O)(=O)NCCN2CCOCC2)cc1Cl | 17 | -28 | 9 | -4% | -1.5
CC(=O)Nc1nonc1NC(=O)CSc1nc2ccccc2o1 | 6 | -54 | -8 | -4% | -5.0
O=C1c2cccc3cccc(c23)C(=O)N1c1nncs1 | 3 | -27 | -16 | -15% | 0.2
CCC(CC)n1[nH]c(=O)c2c(C)cc(C)nc21 | 4 | -14 | -9 | 5% | nt
CCOc1ccc(-c2c(C(=O)N/N=C(\C)c3cccs3)nnn2-c2nonc2N)cc1 | nt | nt | 3 | nt | -1.6
COc1cc(/C=C2/SC(=NCc3ccccc3)N(Cc3ccccc3)C2=O)ccc1O | -38 | -5 | 5 | -6% | 6.0
Cc1ccc(OCC(=O)N2CCc3ccccc32)cc1 | -4 | -26 | 11 | -2% | 2.9
CCCn1c(=O)c2ccccc2n2c(SCCOc3ccc(C)cc3)nnc12 | 3 | -35 | 4 | -4% | 0.2
CCOC(=O)C1=C(N)N2C(=O)C(C)SC2=C(C(=O)OC)C1c1cccc(OC)c1 (stereo unspecified) | 4 | -20 | -6 | -4% | 1.9
COc1ccc(C(=O)C2CCCN(C(=O)c3cnsn3)C2)c(C)c1 (stereo unspecified) | nt | nt | 3 | -10% | -1.4
Cc1c(N=c2c(=O)c3ccccc3c2=O)c(=O)n(-c2ccccc2)n1C | -2 | nt | 3 | -4% | 5.2 | Arbovirus anti repeat=-12
CC(C)N(Cc1ccccc1)C(=O)CCS(=O)(=O)c1ccc2c(c1)oc(=O)n2C | nt | nt | -4 | nt | -6.0
CC1(OC(=O)c2ccc(Cl)nc2)C(=O)C=C2C=C(C3CC3)OC=C2C1=O (stereo unspecified) | nt | nt | 7 | -13% | -1.1
Cc1ccc(NP(=O)(c2ccc(N(C)C)cc2NC(=O)c2cccs2)N2CCOCC2)cc1Cl (stereo unspecified) | -2 | 8 | 16 | 33% | 0.7
CCOC(=O)c1[nH]c(C)c(C(=O)NCC2CCCO2)c1C (stereo unspecified) | -1 | -2 | 6 | 0% | 2.6
COc1ccc(-c2cc(C(=O)Nc3cc(C)n(Cc4ccc(Cl)cc4)n3)no2)cc1OC | -19 | -28 | 5 | 0% | nt
CCC(NC(=O)c1ccccc1NC(=O)C(C)(C)C)C(=O)N1CCCC1 (stereo unspecified) | nt | nt | 2 | nt | -1.6
CCCCCC(=O)Nc1nnn(CCC)n1 | 3 | -19 | -13 | 2% | 3.9
COc1cccc(C(=O)NCCS(=O)(=O)N2CCC(C)CC2)c1 | nt | nt | -4 | nt | 1.4
COc1ccc(C(=O)N2CCC(C(=O)Nc3ccccc3OC)CC2)cc1 | 5 | -25 | -1 | -14% | -1.1
CCCN1CCC(=O)N([C@H](CSc2ccc(OC)cc2)Cc2ccccc2)CC1 | nt | nt | -6 | 12% | -1.4
Cc1ccc(CN2CCN(Cc3ccccn3)CC2CCO)cc1 (stereo unspecified) | -4 | nt | 3 | 7% | 11
Cc1cccc(C)c1NC(=O)COC(=O)c1ccccc1[N+](=O)[O-] | 9 | nt | 0 | 4% | 1.1
C=CCNC(=O)C1CCCN(S(=O)(=O)c2ccc(-n3cnnn3)cc2)C1 (stereo unspecified) | nt | nt | 2 | nt | -1.4
O=[N+]([O-])c1cnc2nc(-c3ccncc3)nn2c1O | -1 | nt | 4 | -2% | 2.2
CCCc1c(C)nc(SCC(=O)C(C)(C)C)nc1OC(=O)N(C)C | nt | nt | -9 | -2% | 0.4
CC(C)c1ccc2[nH]c(O)c(N=NC(=O)c3cccc(S(=O)(=O)Nc4ccc(Cl)cc4)c3)c2c1 | -11 | nt | -6 | -3% | -0.6
C/C=C/c1ccc(OCC(=O)OCc2csc(Nc3ccc(C)cc3)n2)c(OC)c1 | 0 | -11 | 99 | 3.8µM* | 1.6
C#CCn1c(=NC(=O)CN2C(=O)CCC2=O)sc2cc(S(N)(=O)=O)ccc21 | 11 | -23 | 2 | 3% | 5.6
COc1ccc(CCN(C)C(=O)c2cc(S(=O)(=O)N3CCCCC3)ccc2Cl)cc1OC | nt | nt | -3 | nt | 0.0
COc1ccc(S(=O)(=O)N2CCC(C(=O)NCCc3ccccc3)CC2)cc1OC | 5 | -30 | -4 | 4% | 3.9

From PubChem BioAssay
